Screening data as filed in PubChem BioAssay.
BJeLR viability – kills HRASV12-expressing BJeLR cells; BJeLR (HRASV12) viability, CellTiter-Glo ATP luminescence, 48 h; reference of the scale not given here; 300,000 compounds, 0.17% hits; inhibition, % (concentration not given with the values);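 active = replicate mean above 50%; inconclusive = above 50% but judged a plate artefact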;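 note: 50 nL library stock added to about 25 µL; numbers are from one replicate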
Sa ugtP lethal – compounds lethal to S. aureus RN4220 ugtP deletion mutant; OD600 growth, 16 h; some inactives read as strong as hits; growth inhibition, % (test concentration not listed); 330,000 compounds, 0.54% hits;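 active = z-score under -3 and OD600 up to 0.15 on both plates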;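 note: plate controls were untreated wells for no effect and antibiotic for full effect; wells of about 80 µL received 100 nL stock; the first replicate is given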
Sa RN4220 lethal – S. aureus RN4220 growth inhibition; OD600, 16 h; inhibition, % (no concentration beside the values); 330,000 compounds, 0.33% hits;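 active = z-score of -3 or lower and OD600 up to 0.18 on both plates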;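 note: plate controls were untreated cells for no effect and reference antibiotic for full effect; stock transfer was 100 nL into about 80 µL; one replicate is shown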
Mtb hypoxia inh – inhibitors of hypoxia-regulated fluorescent reporter in Mycobacterium tuberculosis | M. tuberculosis hypoxia-regulated fluorescent reporter, fluorescence | fluorescence inhibition, % (no concentration beside the values) | 300,000 compounds, 0.1% hits;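 active = 35 to 45% if threefold the growth effect, above 45% if 1.5-fold the growth effect; inactive = the rest, general growth blockers included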;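 note: wells of about 50 µL received 100 nL stock; 0% = vehicle wells and 100% = reference inhibitor wells; whole bacteria with a GFP reporter of the hypoxia response; strong numbers were not always called active; many hits fall short of the cut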
PrP 5UTR inh – suppresses PrP 5' UTR mRNA reporter expression | 340,000 compounds, 0.35% hits | AID 488862 | cell-based PrP 5' UTR mRNA reporter, plate reader | inhibition, % (no concentration beside the values);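 active = every replicate at 50% or more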;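 note: 0 = median of the neutral control wells; tested in H4 reporter cells; numbers are from one replicate; inactives centre near -14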
Bead autofluor – counter-screen for toxin protease inhibitors: compound fluorescence. 360,000 compounds, 3.1% hits. AID 624483. fluorescence intensity (test concentration not listed). compound autofluorescence counterscreen, microsphere flow cytometry; active compounds read high;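 active = at least 3 SD above the mean of all compounds, about 16000 in these data; inconclusive = too few beads counted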;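 note: 100 nL of 1 mM stock went into each well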
Mtb hypoxia inh growth – second read-out of Mtb hypoxia inh, no call of its own (marks repeat the call); growth inhibition, %; measured here: M. tuberculosis growth (absorbance);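 0% = vehicle and 100% = reference antibiotic; read after six days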
* marks the source's active call; other numbers are inactive results; ? = inconclusive; . = not tested or not shown. No enrichment for hits; overall some 4.1% were active at least once.

The first twelve compounds, ahead of the listing:
item	compound	BJeLR viability	Sa ugtP lethal	Mtb hypoxia inh	Mtb hypoxia inh growth	Sa RN4220 lethal	Bead autofluor	PrP 5UTR inh
1	Cc1ccc(Cl)cc1NC(=O)C[n+]1ccc(Cc2ccc([N+](=O)[O-])cc2)cc1	0	-19	8	19	-8.8	2934	-9
2	COc1ccccc1CNC(=O)c1ccc(NS(=O)(=O)c2cccs2)cc1	-6	5	6	12	-7.6	5163	-20
3	COC(=O)C1=C(C(=O)OC)[C@@H]2N(Cc3ccccc3)c3ccccc3[C@@]23C[C@@H](CO)N(C(=O)NC2CCCC2)C3=N1	-2	.	.	.	.	3569	-1
4	O=C(Cn1cccc1C(=O)c1ccccc1)NCc1ccc(Cl)cc1	-10	3	-3	4	0.8	4229	-15
5	Cc1cc(C)[n+](C2C3CC4CC(C3)CC2C4)o1 (stereo not given)	7	6	3	3	4.8	9500	-5
6	CCC(=O)N(CCC(c1ccccc1)c1ccco1)Cc1cccs1 (stereo not given)	-2	17	6	6	-1.4	2951	-6
7	O=c1[nH]c(=O)c2nc(-c3ccc(Cl)cc3)cnc2[nH]1	-2	1	1	-1	3.8	3712	-5
8	Cc1cccc(C)c1OCC(=O)NC1CC1	-4	17	11	2	3.7	5529	-12
9	Cc1ccc2sc(NNC(=O)c3cc(=O)c4ccccc4o3)nc2c1C	7	.	.	.	.	5804	-25
10	NC(N)=NC(N)=Nc1cccc2ccccc12	2	-4	-12	-2	-0.9	?	-21
11	CNC(=S)N1C2CCCC1CC(NC(=O)c1ccc(C)cc1)C2 (stereo not given)	.	10	10	5	1.9	3130	4
12	CC1Cc2ccccc2N1C(=O)COC(=O)C1=COCCO1 (stereo not given)	2	9	.	.	13	3455	-20

The whole of this part, from the start:
item	compound	BJeLR viability	Sa ugtP lethal	Mtb hypoxia inh	Mtb hypoxia inh growth	Sa RN4220 lethal	Bead autofluor	PrP 5UTR inh
1	Cc1ccc(Cl)cc1NC(=O)C[n+]1ccc(Cc2ccc([N+](=O)[O-])cc2)cc1	0	-19	8	19	-8.8	2934	-9
2	COc1ccccc1CNC(=O)c1ccc(NS(=O)(=O)c2cccs2)cc1	-6	5	6	12	-7.6	5163	-20
3	COC(=O)C1=C(C(=O)OC)[C@@H]2N(Cc3ccccc3)c3ccccc3[C@@]23C[C@@H](CO)N(C(=O)NC2CCCC2)C3=N1	-2	.	.	.	.	3569	-1
4	O=C(Cn1cccc1C(=O)c1ccccc1)NCc1ccc(Cl)cc1	-10	3	-3	4	0.8	4229	-15
5	Cc1cc(C)[n+](C2C3CC4CC(C3)CC2C4)o1 (stereo not given)	7	6	3	3	4.8	9500	-5
6	CCC(=O)N(CCC(c1ccccc1)c1ccco1)Cc1cccs1 (stereo not given)	-2	17	6	6	-1.4	2951	-6
7	O=c1[nH]c(=O)c2nc(-c3ccc(Cl)cc3)cnc2[nH]1	-2	1	1	-1	3.8	3712	-5
8	Cc1cccc(C)c1OCC(=O)NC1CC1	-4	17	11	2	3.7	5529	-12
9	Cc1ccc2sc(NNC(=O)c3cc(=O)c4ccccc4o3)nc2c1C	7	.	.	.	.	5804	-25
10	NC(N)=NC(N)=Nc1cccc2ccccc12	2	-4	-12	-2	-0.9	?	-21
11	CNC(=S)N1C2CCCC1CC(NC(=O)c1ccc(C)cc1)C2 (stereo not given)	.	10	10	5	1.9	3130	4
12	CC1Cc2ccccc2N1C(=O)COC(=O)C1=COCCO1 (stereo not given)	2	9	.	.	13	3455	-20
13	O=C1CCCC(=NNC(=O)C2CCN(S(=O)(=O)c3cccs3)CC2)C1	.	6	4	3	1.6	.	.
14	CC(C)(C)n1nc2c(c1NC(=O)COc1ccc3ccccc3c1)CS(=O)C2 (stereo not given)	4	2	5	5	1.1	5976	-30
15	Cc1cc(OCC(=O)N[C@@H](Cc2ccccc2)c2nc3ccccc3[nH]2)ccc1Cl	-5	0	-6	1	2.9	2497	-56
16	Cc1oc(C)c(C(=O)NCCCC(=O)O)c1C(=O)NCCCC(=O)O	1	-2	.	.	0.2	2380	-19
17	CCN(Cc1ccccc1)S(=O)(=O)c1cc(C(=O)c2c(N)n(C)c(=O)n(C)c2=O)ccc1OC	-1	3	14	6	4.0	4683	-30
18	COc1ccc(CC(=O)OCc2cc3cccc(C)c3[nH]c2=O)cc1	-9	-8	0	5	0.8	10553	-34
19	Cc1ccc(-n2nnnc2SCCNS(=O)(=O)c2ccccc2)cc1C	-14	-12	-11	-7	-1.8	10861	-16
20	CCc1ccc(/C=C2/SC(=S)N(CCCC(=O)Nc3ccccc3C(=O)O)C2=O)cc1	3	18	4	0	28	5896	9
21	CCOC(=O)c1nn(-c2ccccc2)c(=O)cc1SC(C)CC (stereo not given)	4	-6	6	16	2.2	23432*	3
22	NC(=O)c1ccsc1NC(=O)CSc1nnc(Nc2ccccc2)s1	-5	-14	6	11	5.7	4706	-9
23	CCCCc1ccc(-c2csc(/C(C#N)=C/c3ccco3)n2)cc1	8	27	5	6	-3.7	2816	-3
24	COc1ccc(C2=NOC(COc3ccc([N+](=O)[O-])cc3)C2)cc1 (stereo not given)	-11	3	-2	1	3.7	.	-2
25	Cc1ccc(-c2noc(C3CCCCC3)n2)cc1	0	32	11	10	7.8	2870	-105

Entries by screen from above:
Entries 9 to 20 in Sa RN4220 lethal: ., -0.9, 1.9, 13, 1.6, 1.1, 2.9, 0.2, 4.0, 0.8, -1.8, 28

New compounds follow:
item	compound	BJeLR viability	Sa ugtP lethal	Mtb hypoxia inh	Mtb hypoxia inh growth	Sa RN4220 lethal	Bead autofluor	PrP 5UTR inh
26	CC(Sc1nnc(-c2cccs2)n1N)C(=O)NCC1CCCO1 (stereo not given)	2	1	-5	8	4.2	?	-7
27	CC(C)c1ccc(NC(=O)NC2CC3CCC(C2)N3Cc2cccs2)cc1 (stereo not given)	-6	4	4	4	5.5	3300	-21
28	COc1ccc(-c2[nH]c(-c3ccc(C)cc3)nc2SCC(=O)NCc2ccco2)cc1OC	-6	3	-10	14	13	5934	-35
29	COc1ccc(-c2nnc3ccc(SCC(=O)N4CCCCCC4)nn23)cc1OC	2	10	5	2	1.7	3758	0
30	CC(NCC1(N2CCOCC2)CCCCC1)C(=O)N1CCc2ccccc21 (stereo not given)	-4	0	3	1	-3.1	3976	-11
31	CCO/C(C)=C1\C(=O)N(CC)c2ccccc21	8	-7	.	.	2.5	5014	0
32	CC(=O)C1C(c2ccco2)c2c(noc2C)CC1(C)O (stereo not given)	8	13	2	4	8.5	?	3
33	CC(=O)Nc1nc2ccccc2n1Cc1ccc(Cl)cc1	16	3	4	-1	5.6	3927	0
34	CC(C)c1ccc(NC2(C#N)C(=O)Nc3ccccc32)cc1 (stereo not given)	-10	2	-1	5	18	3921	-30
35	Cc1c(Cl)cccc1NC(=O)COC(=O)CCc1nc2ccccc2n1-c1ccccc1	7	-17	3	-2	8.3	2620	-6
36	CC(=O)Nc1ccc(NC(=O)Cn2c(CC(=O)N3CCCC3)nc3ccccc32)cc1	-9	3	9	8	2.7	9392	-12
37	CC(=O)NC(C)C(=O)OCC(=O)Nc1ccc(Br)cc1 (stereo not given)	16	2	11	-1	2.8	?	-23
38	CCOc1ccccc1CN1CCN(Cc2cc(=O)c3ccccc3[nH]2)CC1CCO (stereo not given)	-8	9	-5	1	1.9	4099	-20
39	Cc1nn2cc(-c3cccc(Cl)c3)cnc2c1Cl	10	6	7	4	-7.5	4191	-90
40	O=C(c1ccccc1)c1cn(CC(=O)N2CCOCC2)c2ccccc12	1	3	17	8	4.3	5001	-12
41	Cc1onc(-c2c(F)cccc2Cl)c1C(=O)Nc1cc(S(=O)(=O)N2CCCCC2)ccc1O	.	-2	7	3	-12	.	-9
42	COc1ccccc1NC(=O)c1ccccc1NS(=O)(=O)c1cccs1	-7	14	9	1	-4.4	4187	-10
43	COc1ccc(N2CCN(CC(=O)c3ccccc3)CC2)cc1	-22	11	-6	5	3.9	3833	-11
44	CCCCNC(=O)N1CCCC(N(C)CCc2ccc(OC)c(OC)c2)C1 (stereo not given)	1	5	3	8	1.8	3702	3
45	Cc1cc(CNC(=O)c2ccc(C)c([N+](=O)[O-])c2)c2ccccc2n1	13	0	9	-4	1.1	4003	-13
46	CC(CC(=O)NCc1ccc(Cl)cc1)S(=O)(=O)c1ccc2c(c1)NC(=O)CO2 (stereo not given)	-5	7	9	4	-2.5	5836	11
47	CC(Cc1c[nH]c2ccccc12)C(=O)O (stereo not given)	-3	4	.	.	6.2	5985	-11
48	Cc1ccc(N(C(=O)Nc2ccccc2)C2=NCC(C)S2)cc1 (stereo not given)	4	88*	-2	-2	4.9	8498	-24
49	O=S(=O)(/N=C/c1c(O)ccc2ccccc12)c1ccccc1	-3	.	.	.	.	3955	-29
50	CC(=O)NCCC(=O)NCc1ccc(F)cc1	8	6	.	.	8.9	2378	-2

(further entries)
item	compound	BJeLR viability	Sa ugtP lethal	Mtb hypoxia inh	Mtb hypoxia inh growth	Sa RN4220 lethal	Bead autofluor	PrP 5UTR inh
51	CC(=O)N1C(c2ccccc2)CC(=O)OC1c1ccc2c(c1)OCO2 (stereo not given)	-1	-1	.	.	0.1	4616	13
52	CCC(C)(C)NC(=O)CN(CC1CCCO1)C(=O)CCC(=O)Nc1nccs1 (stereo not given)	-4	2	.	.	-1.3	3742	-17
53	Cc1cccc(NC(=O)CC2SC(=NC3CCCCC3)NC2=O)c1 (stereo not given)	-6	-8	.	.	-1.6	2317	-8
54	CCOC(=O)Cn1c(=O)c(C#N)cn(C(C)C)c1=O	1	0	10	-2	1.7	.	.
55	CC1CCCN(S(=O)(=O)c2ccc(C(=O)Nc3nnc(-c4ccncc4)o3)cc2)C1 (stereo not given)	4	7	-20	-16	18	2334	-16
56	O=C(Nc1nnc(CCc2ccccc2)s1)C1CCCO1 (stereo not given)	1	10	.	.	-0.3	4408	-4
57	COc1ccc2c(c1OC)C(=O)OC2Nc1ncccc1C (stereo not given)	8	0	.	.	-4.3	5775	-4
58	O=C(N/N=C/C(Br)=C/c1ccccc1)c1ccccc1F	-8	.	.	.	.	4252	-34
59	O=C(N[C@H](C(=O)O)c1ccccc1)C1CCC(Cn2cnc3ccccc3c2=O)CC1 (stereo not given in full)	-8	8	12	2	3.2	.	-14
60	Cc1nn(Cc2ccc(Cl)c(Cl)c2)c(C)c1NC(=O)c1cc(CC(C)C)on1	3	15	9	0	-2.5	5937	-8
61	C=CCN1CCN(C(=O)c2oc3ccccc3c2C)CC1	-2	7	10	22	-2.3	3567	-11
62	CC(NC(=O)CCC1COc2ccccc2O1)c1ccccc1 (stereo not given)	-12	4	3	2	5.8	10863	-11
63	O=c1c(O)c(-c2cccs2)oc2ccccc12	6	-12	5	18	22	7327	-17
64	COC(=O)c1ccc(-n2c(C)cc(C(=O)CSc3ccc(NC(C)=O)cc3)c2C)cc1	1	-7	-1	3	7.8	2494	-5
65	O=C1CN(C(=O)c2c(F)cccc2F)C(c2ccc(F)cc2)c2cc(F)ccc2N1 (stereo not given)	-8	7	1	8	-0.1	3566	-26
66	CC(=O)N1CCc2cc(S(=O)(=O)CCC(=O)O)ccc21	2	2	.	.	4.4	2771	-10
67	COc1cccc(/C=N/NC(=O)c2cc3c(OC)ccc(OC)c3[nH]2)c1O	4	.	.	.	.	3631	21
68	Cc1cc(C)cc(-n2ncc3c2CCCC3NC(=O)c2cc(C)[nH]n2)c1 (stereo not given)	4	11	4	4	3.5	?	-13
69	Cn1nnc(NCc2cc(Br)ccc2OCc2cccs2)n1	0	3	6	-4	-1.7	9327	-18
70	CCC(CC)CN1C(Nc2ccccc2)=NC[C@@H]1C	1	.	.	.	.	3590	-12
71	COc1ccnc(CN(C)C(=O)C2CCC(=O)N(CCN(C)C)C2)c1 (stereo not given)	-6	4	-8	0	2.3	5863	4
72	CN(C)CCCOc1ccc(Cl)cc1Br	-11	-8	6	5	0.0	10799	-30
73	Cn1cccc1C(=O)NCCc1ccc(Cl)cc1	-3	11	15	5	0.0	6174	-76
74	CCOC(=O)c1c(/N=C/c2cc(C)ccc2O)sc2c1CCN(C)C2	4	.	.	.	.	2108	-22
75	CCCCNC(=O)CSc1nc2ccc(Nc3nc(N4CCOCC4)nc(N4CCOCC4)n3)cc2s1	-7	-19	-1	10	2.0	4955	-27
76	CCN(CC)CCN1C(=O)c2oc3ccccc3c(=O)c2C1c1ccc(C)cc1 (stereo not given)	-17	.	.	.	.	2528	-25
